Screening data from PubChem.
Marburg entry = inhibitors of Marburg virus binding or entry into cells; Potency, µM (doses to about 49.2 µM), for the others: top-dose activity change, negative = inhibition, usual class: inhibitors; Marburg virus pseudotype entry/binding inhibition, cell-based; control for the full effect not named in the record; many of its hits are not listed in these tables; 18,000 tested, 6.5% active; active means well fitted inhibition curve with a large enough effect; inconclusive means small, poorly fitted or top-dose-only effect; inactive means no such curve, though single readings can be large or run the other way; tested in HEK293 cells; note: luciferase read-out
LASV entry inh = blocks Lassa virus binding or cell entry. AID 720533. Potency, µM (titrated, usually from 49.2 µM), without a hit: at the top dose activity change, negative = inhibition, usual class: inhibitors. 18,000 tested, 4.1% active. Lassa virus pseudotyped entry inhibition, cell-based qHTS; control for the full effect not named in the record; many of its hits are not listed in these tables; active = well fitted inhibition curve with a large enough effect; inconclusive = small, poorly fitted or top-dose-only effect; inactive = no such curve, though single readings can be large or run the other way; tested in HEK293 cells; note: luciferase read-out
Active calls of the source: *; ? = inconclusive; . = no result given; & = joins results of further samples; [ ] = another dose, or the depositor's remark. % is set by controls: 0 for no effect and ±100 for the full control effect; potency is the fitted concentration of half-maximal effect.

Results follow in this order: LASV entry inh	Marburg entry
1. CC(=O)c1ccc(-c2ccc(-c3cc(=O)oc4c(C(C)C)ccc(C)c34)cc2)cc1
    ?	-8%
2. Cc1cnc(CNc2ncnc3ccc(-c4ccccc4CN(C)C)cc23)cn1
    1%	-23%
3. Nc1nc(NCCc2ccc(O)cc2)nc2nc(-c3ccco3)nn12
    ?	2%&9%
4. CCC1(C2CCN(C(=O)c3ccc4ccccc4c3)CC2)NC(=O)N(CCc2scnc2C)C1=O (stereo not given)
    2%	-8%
5. C=CCN1CCc2c(cc(O)c(O)c2Cl)C(c2ccccc2)C1 (stereo not given)
    -29%	-30%
6. CC=COC(=O)N[C@@H](c1cccc(C)c1)[C@]1(C(=O)OCC)CCCC1=O
    -17%[8.59 µM]	13%[8.59 µM]
7. C#CCCCON=C1C[C@@H](O)[C@H](O)[C@H]2[C@@H]3C(=O)N(Cc4ccccc4)C(=O)[C@@H]3CC[C@H]12
    7%[8.59 µM]	11%[8.59 µM]
8. CC(C)[C@@]1(NC(=O)[C@@H]2C[C@H]3c4cccc5[nH]cc(c45)C[C@@H]3N(C)C2)O[C@]2(O)[C@H]3CCCN3C(=O)[C@H](Cc3ccccc3)N2C1=O
    1%[17.8 µM]	?
9. CC[N+](CC)(CCNC(=O)C(=O)NCC[N+](CC)(CC)Cc1ccccc1Cl)Cc1ccccc1Cl
    -4%&2%	-2%&-20%
10. CCN1CCCC(OC(=O)C(c2ccccc2)c2ccccc2)C1 (stereo not given)
    -4%	-19%
11. Cc1ncc2c(c1CNC(=O)/C=C/c1cccs1)CCN(C(=O)c1ccc3c(c1)OCCO3)C2
    -4%	-13%
12. Cc1ccc(-c2cc(=O)c3ccc(Cl)cc3[nH]2)cc1
    0%	5%
13. COc1cc([C@@H]2c3cc4c(cc3[C@@H](O)[C@H]3COC(=O)[C@H]23)OCO4)cc(OC)c1O
    ?	?
14. C=CCOC(=O)C(C(C)=O)[C@@H](NC(=O)OC)c1ccc2ccccc2c1 (stereo not given in full)
    27%[8.59 µM]	23%[8.59 µM]
15. C[C@H]1CN(C2CCCCC2)C(=O)[C@H]1CC(=O)Nc1ccc(Br)cc1
    .	9%
16. Cc1cnc(-n2ncc(C(=O)N(C)C3CCOC3)c2C)nc1-c1ccc(F)cc1 (stereo not given)
    5%	-9%
17. COc1ccc2c(c1)CO[C@H]([C@H](O)CBr)[C@H]2C=Cc1ccccc1
    19%[8.59 µM]	-15%[8.59 µM]
18. CC(CCN1CCCc2nc(C)c(C)cc21)=NO[C@@H](C)c1cc(-c2c(C)cc(C)cc2C)no1
    11%&-10%[8.59 µM]	-9%&-28%[8.59 µM]
19. O=C(Nc1ccccc1)C12CC1/C(=N\O)c1ccccc1O2 (stereo not given)
    -9%	10%
20. CN1Cc2ccccc2[C@@H]2c3cccc4[nH]cc(c34)C[C@H]21
    10µM*	8.9µM*
21. Cc1ccc(C(C)C)c2c1C(c1ccc3c(c1)OCO3)CC(=O)O2 (stereo not given)
    -29%	?
22. C[C@H]1C=CCC(=O)N[C@@H](c2ccccc2)[C@@H](C)C=CCC(=O)N[C@@H]1c1ccccc1
    .	?
23. O=S1(=O)CC(N2CCCCC2)CN1CCc1ccccc1 (stereo not given)
    5%	32%[activator]
24. COc1ccc(-c2cc(C)cc3c2OC(CNC(=O)/C=C/c2ccncc2)C3)nn1 (stereo not given)
    -14%	-4%
25. Cc1ccc(-c2cccc([C@H]3[C@@H]4C=CC[C@@H](C)[C@@H]4C(=O)N3Cc3ccccc3)c2)cc1
    -10%	-28%
26. CS(=O)(=O)c1ccc(-c2cc(Br)sc2-c2ccc(F)cc2)cc1
    ?	?
27. C=C(C)C1COc2cc3oc(=O)ccc3cc2O1 (stereo not given)
    -9%	54%[activator]
28. NCC1O[C@H](O[C@@H]2C(O)[C@H](O[C@H]3OC(CO)C(O)C(N)C3O)[C@@H](N)C[C@H]2N)[C@@H](N)CC1O (stereo not given in full)
    15%	-11%
29. O=c1c(O)c(-c2cc(O)c(O)c(O)c2)oc2cc(O)cc(O)c12
    7%	11µM*
30. COC(=O)C1=C(C)N(Cc2ccccc2)C(=NCCCCO)NC1c1cccc(F)c1 (stereo not given)
    .	57%[activator][8.59 µM]
31. O=S1(=O)CC(N2CCN(c3ncccn3)CC2)CN1Cc1ccc(F)cc1 (stereo not given)
    9%	16%
32. CCOC(=O)NN=Cc1ccccc1-c1cc(OC)ccc1OC
    -18%[8.59 µM]	-4%[8.59 µM]
33. N[C@H](C(=O)O)c1cc(O)cc(O)c1
    11%&-2%&2%	-2%&1%&10%
34. CCCCCCCC/C=C/CCCCCCCC(=O)NCCOP(=O)(O)O
    -3%	13%
35. COc1cc(=O)n2c(c1C(=O)NC(C)c1ccco1)CCN(C(=O)c1ccccc1SC)CC2 (stereo not given)
    -3%	4%
36. CN(C)CCN(Cc1ccccc1)c1ccccn1
    -13%	-11%
37. CC/C=C\C/C=C\C/C=C\C/C=C\C/C=C\CCCC(=O)O
    -3%&-21%&3%	4%&-2%&4%
38. O=C1NCCN1CCN1CCC(c2cn(-c3ccc(F)cc3)c3ccc(Cl)cc23)CC1
    22µM*	11µM*
39. C[C@@H]1C[C@](C)(C(=O)c2ccc3ccccc3c2)C=C1c1ccc2ccccc2c1
    3%	-5%
40. CN(C)CC(C)(O)c1ccc2c(c1)CN(Cc1cccn1-c1cccnc1)CCO2 (stereo not given)
    -6%	?
41. O=C(C1CCCCC1)N1C[C@@H](n2cc(C3CC3)nn2)[C@@H](O)C[C@@H]1c1ccccc1
    15%	-2%
42. O=S(=O)(NCCCCCCc1ccccc1)c1cccc2c(Cl)cccc12
    1%	9%
43. C=CC(C)(O)CC1[C@@]2(C)CCCC(C)(C)C2CC[C@]1(C)O (stereo not given in full)
    -20%	-20%
44. CC[C@H](C)[C@H](NC(=O)[C@H](CCC(=O)O)NC(=O)[C@H](CC(N)=O)NC(=O)[C@@H](N)[C@@H](C)O)C(=O)N[C@H](C(=O)N[C@@H](CCC(=O)O)C(=O)N[C@@H](CCC(=O)O)C(=O)N[C@@H](CCC(N)=O)C(=O)N[C@@H](Cc1ccc(O)cc1)C(=O)N[C@H](C(=O)N1CCC[C@H]1C(=O)N[C@@H](CCC(N)=O)C(=O)N[C@@H](CO)C(=O)N[C@@H](CC(C)C)C(=O)N[C@@H](C)C(=O)N[C@H](C(=O)N[C@@H](CC(C)C)C(=O)N[C@@H](CCC(=O)O)C(=O)N[C@@H](CO)C(=O)N[C@H](C(=O)N[C@@H](Cc1ccccc1)C(=O)N[C@@H](CCC(N)=O)C(=O)N[C@@H](CCC(=O)O)C(=O)N[C@@H](CC(C)C)C(=O)NCC(=O)N[C@@H](CCCCN)C(=O)N[C@@H](CC(C)C)C(=O)N[C@H](C(=O)NCC(=O)N1CCC[C@H]1C(=O)N[C@@H](CC(N)=O)C(=O)N[C@@H](CO)C(=O)N[C@@H](CCC(N)=O)C(=O)O)[C@@H](C)O)C(C)C)[C@@H](C)O)[C@@H](C)O)C(C)C
    -1%	1%
45. COc1cc(OC)c2c(c1Cl)OC1(C2=O)C(O)=CC(=O)CC1C (stereo not given)
    1%	-6%
46. CC(C)C[C@H](NC(=O)[C@H](CO)NC(=O)CNC(=O)[C@H](CCCCN)NC(=O)[C@H](CCCN=C(N)N)NC(=O)[C@H](C)NC(=O)[C@H](Cc1ccccc1)NC(=O)[C@@H](N)CCCN=C(N)N)C(=O)N[C@@H](CCCN=C(N)N)C(=O)N[C@@H](CCC(N)=O)C(=O)N[C@@H](CCCCN)C(=O)N[C@@H](CC(N)=O)C(=O)N[C@H](C(=O)O)C(C)C
    2%	-11%
47. O=C(NCC1CCC2(CCN(Cc3cccc4ncccc34)CC2)O1)c1ccccc1 (stereo not given)
    -3%	0%
48. COc1ccc2c(c1)OC(C)CN(CCC(=O)NCC1OCCc3ccccc31)C2 (stereo not given)
    -3%	5%
49. Cc1ccccc1C(=O)N1CCc2c(cnc(C)c2CNC(=O)CN2CCCCC2)C1
    0%	9%
50. C=C1[C@@H]2C[C@]3(C(CC2=O)[C@]24C5C[C@H]3[C@H]2N(CC)C[C@]5(C)CC[C@@H]4O)[C@@H]1O (stereo not given in full)
    2%	-8%
51. C=C1c2cccc(C(F)(F)F)c2O[C@H](C(=O)OCC)[C@@H]1CCCCCC
    5%	6%
52. C=CC(C1=CC(=O)C(OC)=C(OC)C1=O)c1ccccc1 (stereo not given)
    ?	14µM*
53. CC(C)(C)CC(C)(C)c1ccc(O)c(-n2nc3ccccc3n2)c1
    -10%	3%
54. Cc1ccc2nc(-c3ccccc3C)c(CN(CC3CCCO3)C(=O)c3cccs3)cc2c1 (stereo not given)
    4%	-27%
55. CCOC(=O)c1ccc(-c2ccc(-c3cc(=O)oc4cc(OC)c(OC)c(OC)c34)cc2)cc1
    1%	8%
56. CN1C(=O)C(Cc2c[nH]c3ccccc23)NC1=S (stereo not given)
    -3%	13%
57. Cc1ccc(NC(=O)OC[C@@H]2CSCCS(=O)(=O)N2)cc1
    79%[activator]	85%[activator]
58. O=C(NCc1nnc2n1CCN(Cc1ccccc1C(F)(F)F)CC2)c1ccncc1
    1%	-4%
59. Cc1cnc(C)c(-c2cccc3c2OC(CNC(=O)c2cc(C)on2)C3)n1 (stereo not given)
    4%	-13%
60. CCN1C(=O)[C@@H]2[C@H]3[C@H](O)[C@H](O)CC(=NO[C@H](C)CN4CCCc5nc(C)c(C)cc54)[C@@H]3CC[C@H]2C1=O
    14%[8.59 µM]	2%[8.59 µM]

4 entries from above in a different format.
49: Cc1ccccc1C(=O)N1CCc2c(cnc(C)c2CNC(=O)CN2CCCCC2)C1
  LASV entry inh = 0%
  Marburg entry = 9%
51: C=C1c2cccc(C(F)(F)F)c2O[C@H](C(=O)OCC)[C@@H]1CCCCCC
  LASV entry inh = 5%
  Marburg entry = 6%
43: C=CC(C)(O)CC1[C@@]2(C)CCCC(C)(C)C2CC[C@]1(C)O (stereo not given in full)
  LASV entry inh = -20%
  Marburg entry = -20%
56: CN1C(=O)C(Cc2c[nH]c3ccccc23)NC1=S (stereo not given)
  LASV entry inh = -3%
  Marburg entry = 13%

Later entries:
Results follow in this order: LASV entry inh	Marburg entry
61. COc1ccc(CNc2nc(-c3ccoc3)nc3ccccc23)c(OC)c1
    -9%	-25%
62. CCCCCCCC/C=C\CCCCCCCC(=O)NCCCC(=O)O
    -9%	-1%
63. Cc1cc(Cl)ccc1OCC(=O)N1CCOc2ccc(CN3C[C@@H](C)O[C@@H](C)C3)cc2C1
    -11%	11%
64. CCN[C@H]1CN(CCCOC)S(=O)(=O)c2sc(S(N)(=O)=O)cc21
    0%[17.8 µM]	1%[17.8 µM]
65. CC12C=C(C=CCCc3ccco3)C(C)(C1)C(CCc1ccco1)CC2=O (stereo not given)
    9%[8.59 µM]	-6%[8.59 µM]
66. CO
    -15%	16%
67. CN1CCC(O)(c2ccc(F)cc2)C(C(=O)c2ccc(F)cc2)C1 (stereo not given)
    -20%	6%
68. Cc1cc(C)cc(CN2CCOc3ccc(CN4CCC(O)(c5cccnc5)CC4)cc3C2)c1
    8%	?
69. COc1ccccc1CN1CCOc2ccc(CN3CCC(Oc4cccnc4)CC3)cc2C1
    -1%	?
70. CN(C)C(=O)c1ccc(-c2nc(NCc3cccnc3)c3ccccc3n2)cc1
    ?	-5%
71. CCCn1c(=O)[nH]c2nc(-c3ccc(S(=O)(=O)O)cc3)[nH]c2c1=O
    -14%&-1%	-16%&3%
72. COc1ccc(N2C(=O)[C@H]3CCC=C[C@H]3[C@@H]2c2ccccc2Br)cc1
    ?	?
73. O=C(C1CCOC1)N1CCOc2ccc(CN3CCC(Oc4cccnc4)CC3)cc2C1 (stereo not given)
    14%	-16%
74. O=C(O)CCc1nc(-c2ccccc2)c(-c2ccccc2)o1
    -9%	0%
75. NS(=O)(=O)c1ccc(-c2cc3ccncc3cc2OCc2ccccc2)cc1
    .	?
76. CC[C@]1(O)C(=O)OCc2c1cc1n(c2=O)Cc2cc3ccccc3nc2-1
    ?	2.8µM*
77. O=c1nc2ccccc2c2n1CC(CN1CCN(c3ccccc3)CC1)N2 (stereo not given)
    0%	7%
78. CCCCCCCCCCCCC/C=C\[C@@H](O)[C@H](CO)NC(C)=O
    ?	12%
79. Cc1ccccc1C1(CC(=O)N2CCN(C)CC2)CC(=O)N(Cc2ccncc2)C1=O (stereo not given)
    17%	-16%
80. CCN(CC)CCNC(=O)c1cnn(-c2nccc(-c3cc4ccccc4o3)n2)c1C
    ?	13µM*
81. COC(=O)[C@H](COC(C)(C)C)NC(=O)O[C@@H]1C(=O)c2ccc(OC)cc2O[C@H]1c1ccc2c(c1)OCO2
    -1%	?
82. COc1cc(-c2cc(C)c3c(OC)ccc(OC)c3n2)cc2c1OCCN(C(=O)C(C)c1n[nH]c(=O)c3ccccc13)C2 (stereo not given)
    -7%	3%
83. COc1cc(OC)c2c(=O)c(-c3ccc4c(c3)OCO4)coc2c1
    9%	45%[activator]
84. Cc1cc(C)c2c(c1)CO[C@H]([C@H](O)CO)[C@H]2C=Cc1ccccc1
    -15%[8.59 µM]	?
85. COCCN1C(=O)N[C@@H](c2ccccc2)C(C(C)=O)=C1C
    -7%	-5%
86. COC(=O)[C@@H]1C[C@H](NC(=O)c2cc(C(F)(F)F)ccc2Cl)CN1Cc1cccc(O)c1
    -11%	-9%
87. CC(C)N1CCN(c2ccc(OC[C@H]3CO[C@](Cn4cncn4)(c4ccc(Cl)cc4Cl)O3)cc2)CC1
    -13%[17.8 µM]	?
88. CCCCC[C@H](O)C/C=C1/C(=O)C=C[C@@H]1C/C=C\CCCC(=O)O
    ?	12%&-8%
89. CC(C)C1C(=O)N(Cc2cn(CCC3OCCO3)nn2)CCS(=O)(=O)N1Cc1ccc(-c2ccccc2Cl)cc1 (stereo not given)
    -20%	?

These rows are one share of the data; rates above refer to the full screens.
